# Compound activity as filed in PubChem.
# Methyltransferases = Primary Screen for Target Class Profiling of Small Molecule Inhibitors of Methyltransferases; purified enzyme, MTase-Glo SAH luminescence; stronger effect = lower value; calls only at 40 µM; hit rate 3.9% among 25,000; active = -50% or lower on at least one of six enzymes; inconclusive = the cases between; inactive = as a rule above -30% on all six;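 further: enzymes were COMT GAMT GNMT HNMT NNMT and PNMT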
#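 Each enzyme was assayed with SAM and its substrate. SAH formation detected by MTase-Glo luminescence; single-point 40 uM screen[…].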
# Calls only; i = inactive; ? = inconclusive; + = active, no number. On the % scale 0 is the no-effect control and ±100 the full control effect. This is a subset. The share of hits here may be higher or lower than overall.
SMILES,Methyltransferases
CC[C@]12C=CCN3CC[C@@]4(c5cc([C@@]6(C(=O)OC)C[C@H]7C[C@@H](C(C)(F)F)CN(Cc8c6[nH]c6ccccc86)C7)c(OC)cc5N(C)[C@H]4[C@@](O)(C(=O)OC)[C@@H]1OC(C)=O)[C@@H]32,i
Cc1cnc(C2CCOCC2)n1C1CCNCC1,i
Cc1ccc(CNC(=O)Cn2nc3n(CCc4ccccc4)c(=O)c4ccccc4n3c2=O)cc1,i
Cc1ccc(Cl)cc1Nc1nn2c(=O)c3ccc(C(=O)NCCCOC(C)C)cc3nc2s1,i
CC1(C(=O)NC2CCCCC2)Cn2c(ccc2-c2ccco2)C(=O)N1Cc1ccc(Cl)cc1 (configuration not stated),i
CCC1c2ccc(C)n2CCN1C(=O)Nc1ccccc1F (configuration not stated),i
COc1ccc(CNC(=O)c2cc3n(n2)CC(C)(C(=O)NCCC(C)C)N(C)C3=O)c(OC)c1 (configuration not stated),i
CCOC(=O)C(C)(C)Oc1ccc(Cl)cc1,i
CCc1ccc(S(=O)(=O)c2nnn3c2nc(N)c2cc(Cl)ccc23)cc1,i
CCN1CCN(C(=O)c2cc(-c3ccccc3OC)c3nncn3n2)CC1,i
CCCCCCC(=O)OC1CC(C)(C)NC(C)(C)C1,i
CCc1cc2c(cc3n2CC(C)(C(=O)NC2CCCCCC2)N(CCc2ccccc2)C3=O)s1 (configuration not stated),i
CC1=CC(=O)CC(C)(C)[C@@]1(O)/C=C/C(C)O[C@@H]1O[C@H](CO)[C@@H](O)[C@H](O)[C@H]1O (some centres not stated),i
CC1CCCCC1NC(=O)Cn1ccc2cc(S(=O)(=O)N3CCCC3)ccc21 (configuration not stated),i
COC(=O)c1cc2n(n1)CC(C)(C(=O)NC1CCCCC1)N(c1cccc(SC)c1)C2=O (configuration not stated),i
Cc1ccccc1CN1C(=O)c2nc3ccccc3n2CC1(C)C(=O)NC1CCCC(C)C1C (configuration not stated),i
C[C@@H]1C(=O)O[C@H](C)[C@H]1CC(=O)[C@](C)(O)[C@H]1CC[C@@]2(O)C3=CC(=O)[C@@H]4C[C@@H](O)[C@@H](O)C[C@]4(C)C3CC[C@]12C (some centres not stated),i
CC1CCN(C(c2ccc(F)cc2)c2ccc(C(C)C(=O)O)cc2-c2ccc(C(F)(F)F)cc2)CC1 (configuration not stated),+
COC(=O)[C@@H]1Cc2ncn(Cc3ccc(Cl)cc3)c2CN1CCCc1ccccc1,+
Cc1ccc(N2CC(C)N(C(=O)c3ccc(-n4cnnn4)cc3)CC2=O)cc1 (configuration not stated),i
c1ccc(-n2cc(CN3CCCN(Cc4cccs4)CC3)nn2)cc1,i
O=C1CCCC2=C1C(c1ccccc1Br)N=C(Nc1nc3ccccc3o1)N2 (configuration not stated),?
CC(=O)O[C@@H]1C[C@]2(C)[C@@]3(CCC4[C@@]5(C)CC[C@H](O[C@@H]6O[C@H](C(=O)O)[C@@H](O)[C@H](OC7OC(CO)C(O)C(O)[C@H]7O[C@@H]7O[C@@H](C)[C@H](O)[C@@H](O)[C@H]7O[C@@H]7OC[C@](O)(CO)[C@H]7O)[C@H]6OC6OC(CO)C(O)C(O)C6O)C(C)(C)C5CC[C@]42C)OC[C@@]12CCC(C)(C)CC23 (some centres not stated),i
C[S+](=O)([O-])NCc1nnc2n1C(C(=O)NCc1ccc(Cl)cc1)CC2 (configuration not stated),i
COc1ccc(-c2cc3n(n2)CC(C)(C(=O)NCc2ccccc2OC)N(c2cc(C)cc(C)c2)C3=O)cc1 (configuration not stated),i

# 3 compounds from above, arranged by number of heavy atoms, ascending.
SMILES,Methyltransferases
COC(=O)[C@@H]1Cc2ncn(Cc3ccc(Cl)cc3)c2CN1CCCc1ccccc1,+
CC1(C(=O)NC2CCCCC2)Cn2c(ccc2-c2ccco2)C(=O)N1Cc1ccc(Cl)cc1 (configuration not stated),i
C[C@@H]1C(=O)O[C@H](C)[C@H]1CC(=O)[C@](C)(O)[C@H]1CC[C@@]2(O)C3=CC(=O)[C@@H]4C[C@@H](O)[C@@H](O)C[C@]4(C)C3CC[C@]12C (some centres not stated),i

# The list goes on.
SMILES,Methyltransferases
O=C1CCc2cc(S(=O)(=O)Nc3ccc(F)c(Cl)c3)c(F)cc2N1,?
N#Cc1cccc(C(=O)N2CCCCC2CCn2cc(-c3ccccc3)nn2)c1 (configuration not stated),i
CC1(C(=O)NCc2ccccc2)Cc2ccccc2C(=O)N1Cc1ccc(C(F)(F)F)cc1 (configuration not stated),i
CCOC(=O)c1cc2n(n1)CC(C)(C(=O)NCc1ccccc1OC)N(CCc1ccco1)C2=O (configuration not stated),i
CCCN1C(=O)c2c(C(=O)NCCc3cccs3)ncn2CC1(C)C(=O)NCc1ccc(F)cc1 (configuration not stated),i
Cc1ccc(C(=O)Cn2nc3n(CC(C)C)c(=O)c4ccc(C(=O)NC(C)C)cc4n3c2=O)c(C)c1,i
Clc1ccccc1C1Nc2ccc3ccccc3c2C2C=CCC21 (configuration not stated),i
C/C=C/C=C/[C@@H]1O[C@](O)([C@H](CC)C(=O)NC/C=C/C=C(\C)[C@@H](OC)[C@@H](C)C2OC(/C=C/C=C/C=C(\C)C(=O)c3c(O)cc[nH]c3=O)[C@H](O)[C@@H]2O)[C@H](O)[C@H](O)C1(C)C (some centres not stated),i
COc1ccc(-c2nc3c(c(=O)[nH]2)CCN(C(=O)Nc2ccccc2Cl)C3)cc1,i
CC1(C(=O)NCc2ccc(F)cc2)Cn2c(nc3ccccc32)C(=O)N1Cc1ccc(Cl)cc1 (configuration not stated),i
Cc1ccc(NC(=O)N2CCn3cccc3C2Cc2ccccc2)cc1Cl (configuration not stated),i
CC(C)CCNC(=O)CCc1nnc2n(Cc3ccc(Cl)cc3)c(=O)c3ccccc3n12,i
COc1cc(C)c(C(=O)O[C@@H]2[C@H](O)[C@@H](CO)O[C@H]2n2ccc(=O)[nH]c2=O)c(OC)c1,i
CNC(=O)[C@@H]1CN(C(=O)c2cccc(C)n2)C[C@H]1COC,i
O=[N+]([O-])c1ccc(CSc2ncnc3c2ncn3[C@@H]2O[C@H](CO)[C@@H](O)[C@H]2O)cc1,i
COc1cccc2c1NC(c1cccc3ccccc13)C1CC=CC21 (configuration not stated),i
CC1(C(=O)NC2CCCC2)Cn2c(ccc2-c2ccco2)C(=O)N1Cc1ccco1 (configuration not stated),i
CCOC(=O)c1cc2n(n1)CC(C)(C(=O)NC1CCC(C)CC1)N(c1ccccc1OC)C2=O (configuration not stated),i
CC(C)c1noc([C@H]2C[C@@H]3C(=O)NCCCCCCN(C(=O)Cc4ccccc4)[C@@H]3C2)n1,i
CC(C)OCCCn1c(=O)c2ccccc2n2c(CCC(=O)NCc3ccccc3Cl)nnc12,i
COCCN1CCCC2(CCN(c3ccc4ccccc4n3)C2)C1=O (configuration not stated),i
CC1CCN(CC[C@H]2CCCN2S(=O)(=O)c2cccc(O)c2)CC1,i
CC1CCN(S(=O)(=O)c2ccc3c(ccn3CC(=O)NCc3cccs3)c2)CC1,i
CC(C)COC(=O)N1CCCn2nc(-c3nc4ccccc4n3C)cc2C1,i
CCc1cccc(C)c1NS(=O)(=O)c1ccc2c(c1)n(C)c(=O)n2C,i

# Carrying on.
SMILES,Methyltransferases
CC(C)CCn1c(=O)c2ccccc2n2c(=O)n(Cc3ccccc3)nc12,i
O=C(NCc1ccc2c(c1)OCO2)C1CCN(c2cn[nH]c(=O)c2)C1 (configuration not stated),i
Cc1cc(CNC(=O)c2cc(C(=O)NCc3ccc(F)c(C)c3)ncn2)ccc1F,i
Cc1ccc(C(=O)Cn2nc3n(C(C)C)c(=O)c4ccc(C(=O)NC(C)C)cc4n3c2=O)c(C)c1,i
C=C1C(=O)O[C@@H]2/C=C(\CO)CC/C=C(/C=O)C[C@H](O)[C@@H]12,+
Cc1ccc(Cn2c(=O)c3ccccc3n3c(CCC(=O)NC4CCC(C)CC4)nnc23)cc1 (configuration not stated),i
CC(C)(CO)c1cc2cc(NC(=O)C3(c4ccc5c(c4)OC(F)(F)O5)CC3)c(F)cc2n1CC(O)CO (configuration not stated),i
Cc1cccc(CNC(=O)C2(C)Cn3cnc(C(=O)NCCc4cccs4)c3C(=O)N2C2CC2)c1 (configuration not stated),i
CN1[C@H](C(=O)O)C[C@H](C(=O)NCC2(CO)CCCC2)[C@@H]1c1ccccc1F,i
CCc1cc2c(cc3n2CC(C)(C(=O)NC2CCCCCC2)N(Cc2cccc(Cl)c2)C3=O)s1 (configuration not stated),i
O[C@@H]1[C@@H](Cn2cc(C3CC3)nn2)C[C@@H](NCc2nccs2)[C@@H]1O,i
CCOC(=O)C1=C(N)Oc2ccc(Cl)cc2C1C(C#N)C(=O)OCC (configuration not stated),i
C=C1CCC2C(C)(CO[C@@H]3O[C@H](CO)[C@@H](O)[C@H](O)[C@H]3O)C(O)CCC2(C)C1C(=O)CC1=CCOC1=O (some centres not stated),i
CC1=C(CC/C(C)=C/C(=O)O)[C@@]2(C)CCCC(C)(C)C2CC1=O (some centres not stated),i
NCCc1noc(Cc2ccccc2)n1,i
CCn1cc(CN2C[C@@H](CO)[C@H](NC(=O)COC)C2)c2ccccc21,i
COc1cccc(N2C(=O)c3cc4ccccc4n3CC2(C)C(=O)NCCC(C)C)c1 (configuration not stated),i
CN1C(=O)c2cc(C(=O)NCCCN3CCCCC3)nn2CC1(C)C(=O)NC1CCCCCC1 (configuration not stated),i
CCc1cc2c(cc3n2CC(C)(C(=O)NC2CCC(C)CC2)N(CCCN2CCCCC2)C3=O)s1 (configuration not stated),i
Cc1csc2c(N[C@@H](C)CN3CCN(S(=O)(=O)c4ccc(Cl)c(Cl)c4)CC3)ncnc12,i
Brc1cccc(-c2nnn3c2nc(NCC2CCCO2)c2ccccc23)c1 (configuration not stated),i
COCCNCc1ccc(-c2cc3nccc(Oc4ccc(NC(=O)C5(C(=O)Nc6ccc(F)cc6)CC5)cc4F)c3s2)nc1,i
CC(C)CNC(=O)c1ccc2c(=O)n(CC(C)C)c3nnc(SCC(N)=O)n3c2c1,i
CCCn1c(=O)c2ccc(C(=O)NC(C)C)cc2n2c(=O)n(CC(N)=O)nc12,i
Cc1ccc(Cn2c(=O)c3ccccc3n3c(=O)n(Cc4cccc(C)c4)nc23)cc1,i

# Structures shown so far that have an aryl methoxy group:
SMILES,Methyltransferases
CC[C@]12C=CCN3CC[C@@]4(c5cc([C@@]6(C(=O)OC)C[C@H]7C[C@@H](C(C)(F)F)CN(Cc8c6[nH]c6ccccc86)C7)c(OC)cc5N(C)[C@H]4[C@@](O)(C(=O)OC)[C@@H]1OC(C)=O)[C@@H]32,i
COc1ccc(CNC(=O)c2cc3n(n2)CC(C)(C(=O)NCCC(C)C)N(C)C3=O)c(OC)c1 (configuration not stated),i
CCN1CCN(C(=O)c2cc(-c3ccccc3OC)c3nncn3n2)CC1,i
COc1ccc(-c2cc3n(n2)CC(C)(C(=O)NCc2ccccc2OC)N(c2cc(C)cc(C)c2)C3=O)cc1 (configuration not stated),i
CCOC(=O)c1cc2n(n1)CC(C)(C(=O)NCc1ccccc1OC)N(CCc1ccco1)C2=O (configuration not stated),i
COc1ccc(-c2nc3c(c(=O)[nH]2)CCN(C(=O)Nc2ccccc2Cl)C3)cc1,i
COc1cc(C)c(C(=O)O[C@@H]2[C@H](O)[C@@H](CO)O[C@H]2n2ccc(=O)[nH]c2=O)c(OC)c1,i
COc1cccc2c1NC(c1cccc3ccccc13)C1CC=CC21 (configuration not stated),i
CCOC(=O)c1cc2n(n1)CC(C)(C(=O)NC1CCC(C)CC1)N(c1ccccc1OC)C2=O (configuration not stated),i
COc1cccc(N2C(=O)c3cc4ccccc4n3CC2(C)C(=O)NCCC(C)C)c1 (configuration not stated),i

# Remaining list, next part:
SMILES,Methyltransferases
CC1=CC(=O)C2C(C)(C)CC(O)CC2(C)C1CO (configuration not stated),i
COC(=O)c1ncn2c1C(=O)N(Cc1ccc(OC)cc1)C(C)(C(=O)NC1CCCCCC1)C2 (configuration not stated),i
CC1CCCC(NC(=O)C2(C)Cn3c(ccc3-c3ccco3)C(=O)N2Cc2ccccn2)C1C (configuration not stated),i
C[C@@]1(O)[C@H](O)[C@@H](CO)O[C@H]1n1ccc(N)nc1=O,i
COc1ccccc1CNC(=O)C1(C)Cn2nc(-c3ccccc3)cc2C(=O)N1c1cccc(SC)c1 (configuration not stated),i
COc1ccccc1CNS(=O)(=O)c1cc2[nH]c(=O)[nH]c2cc1C,i
CCOC(=O)c1cc2n(n1)CC(C)(C(=O)NC1CCCCCC1)N(c1cccc(C)c1C)C2=O (configuration not stated),i
COc1ccc(NC(=O)CCc2nnc3n(Cc4ccc(Cl)cc4)c(=O)c4ccccc4n23)cc1OC,i
CC1(C(=O)NC2CCCCCCC2)Cn2c(cc3occc32)C(=O)N1c1ccc(Cl)cc1 (configuration not stated),i
CC1CCCCC1NC(=O)C1(C)Cn2c(cc3sccc32)C(=O)N1c1ccc(Cl)cc1 (configuration not stated),i
CC[C@H]1CN(C(=O)c2ccnc(Cl)c2)CC[C@H]1CC(=O)N1CCC(C(N)=O)CC1,i
CC(C)OCCCn1c(=O)c2ccccc2n2c(-c3cc(Cl)ccc3O)nnc12,i
O=C(CSc1nnc2n(CCc3ccccc3)c(=O)c3ccccc3n12)Nc1cc(F)ccc1F,i
CC(=O)Nc1c2n(c3ccccc13)CC(C)(C(=O)NC1CCCC1)N(Cc1ccc(C)cc1)C2=O (configuration not stated),i
O=C(Cn1ccc2cc(S(=O)(=O)N3CCCCC3)ccc21)NCc1ccccc1Cl,i
COc1ccccc1N1C(=O)c2cc3ccccc3n2CC1(C)C(=O)NC1CCCCCC1 (configuration not stated),i
CC(C)N1C[C@@H](COC(C)(C)C)[C@H](c2ccccc2)[S+]1(=O)[O-],i
Cc1cccc(N2CCN(C(=O)c3cc4n(n3)CC(c3ccc(Cl)cc3)OC4)CC2)c1 (configuration not stated),i
COc1cc(CCC(=O)N2C[C@@H](C(N)=O)[C@H](c3nc(C)no3)C2)on1,i
CC(C)C1CN(c2ccc(C#N)cn2)CCC(=O)N1Cc1ccc(F)cc1 (configuration not stated),i
Cc1nc(C2CC23CCN(C(=O)Nc2ccccc2F)CC3)no1 (configuration not stated),i
COc1ccc(CN2C(=O)c3cc4occc4n3CC2(C)C(=O)NC2CCCC(C)C2C)cc1 (configuration not stated),i
Cc1cccc(N2CCN(C(=O)CCCc3nnc4n5nc(C)nc5c5ccccc5n34)CC2C)c1 (configuration not stated),i
